PrP 5UTR inh: inhibition of PrP 5' UTR reporter expression | cell-based PrP 5' UTR mRNA reporter, plate reader | inhibition, % (no concentration beside the values) | actives 0.35% (n = 340,000);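 active = every replicate at 50% or more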;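 note: 0 = median of the neutral control wells; tested in H4 reporter cells; numbers are from one replicate; inactives centre near -14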
RN4220 kill: S. aureus RN4220 growth inhibition; OD600, 16 h; inhibition, % (test concentration not listed); actives 0.33% (n = 330,000); AID 1259311;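 active = z-score of -3 or lower and OD600 up to 0.18 on both plates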;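 note: plate controls were untreated cells for no effect and reference antibiotic for full effect; stock transfer was 100 nL into about 80 µL; one replicate is shown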
Sa ugtP lethal: compounds lethal to S. aureus RN4220 ugtP deletion mutant; growth inhibition, % (concentration not given with the values); OD600 growth, 16 h; some inactives read as strong as hits; actives 0.54% (n = 330,000);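 active = z-score under -3 and OD600 up to 0.15 on both plates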;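 note: plate controls were untreated wells for no effect and antibiotic for full effect; wells of about 80 µL received 100 nL stock; the first replicate is given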
Bead autofluor: counter-screen for toxin protease inhibitors: compound fluorescence; compound autofluorescence counterscreen, microsphere flow cytometry; hits give high values; fluorescence intensity (test concentration not listed); actives 3.1% (n = 360,000);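 active = at least 3 SD above the mean of all compounds, about 16000 in these data; inconclusive = too few beads counted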;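 note: 100 nL of 1 mM stock went into each well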
BJeLR viability: kills HRASV12-expressing BJeLR cells. BJeLR (HRASV12) viability, CellTiter-Glo ATP luminescence, 48 h; reference of the scale not given here. inhibition, % (test concentration not listed). actives 0.17% (n = 300,000). AID 1554;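 active = replicate mean above 50%; inconclusive = above 50% but judged a plate artefact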;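 note: 50 nL library stock added to about 25 µL; numbers are from one replicate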
Mtb hypoxia inh: Mtb hypoxia fluorescent reporter inhibition. M. tuberculosis hypoxia-regulated fluorescent reporter, fluorescence. actives 0.1% (n = 300,000). AID 1159583. fluorescence inhibition, % (concentration not given with the values);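 active = 35 to 45% if threefold the growth effect, above 45% if 1.5-fold the growth effect; inactive = the rest, general growth blockers included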;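 note: wells of about 50 µL received 100 nL stock; 0% = vehicle wells and 100% = reference inhibitor wells; whole bacteria with a GFP reporter of the hypoxia response; strong numbers were not always called active; many hits fall short of the cut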
Mtb hypoxia inh growth: recorded beside Mtb hypoxia inh, whose call it bears; growth inhibition, %; measured here: M. tuberculosis growth (absorbance);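 0% = vehicle and 100% = reference antibiotic; read after six days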
* hit, by the source's call; ? = inconclusive; / = no result given.

Start of the data: the first four entries, to show the layout:
Structure | PrP 5UTR inh | RN4220 kill | Sa ugtP lethal | Bead autofluor | BJeLR viability | Mtb hypoxia inh | Mtb hypoxia inh growth
CN1C(=O)C(c2ccccc2)C(=O)N(C)C1=O | / | 0.7 | 0 | 5821 | 2 | -2 | -17
C=CCn1ncc(OC)c(Cl)c1=O | -30 | 5.1 | 7 | 11215 | -15 | 7 | 7
O=C(OCCN1C(=O)c2ccccc2C1=O)c1ccccc1 | -8 | 9.6 | 19 | 3609 | / | 6 | 3
O=C(O)c1ccc(S(=O)(=O)NCC2CCCCC2)cc1 | -18 | 1.2 | 13 | 3424 | 2 | 3 | -5

The list itself (from the top)
Structure | PrP 5UTR inh | RN4220 kill | Sa ugtP lethal | Bead autofluor | BJeLR viability | Mtb hypoxia inh | Mtb hypoxia inh growth
CN1C(=O)C(c2ccccc2)C(=O)N(C)C1=O | / | 0.7 | 0 | 5821 | 2 | -2 | -17
C=CCn1ncc(OC)c(Cl)c1=O | -30 | 5.1 | 7 | 11215 | -15 | 7 | 7
O=C(OCCN1C(=O)c2ccccc2C1=O)c1ccccc1 | -8 | 9.6 | 19 | 3609 | / | 6 | 3
O=C(O)c1ccc(S(=O)(=O)NCC2CCCCC2)cc1 | -18 | 1.2 | 13 | 3424 | 2 | 3 | -5
COc1ccc(CN2CCNC(=O)C2CC(=O)N(C)Cc2ccon2)cc1OC (stereo not given) | -19 | 4.4 | 7 | 2585 | 1 | 9 | 2
CCOC(=O)N1CCN(C(=O)C2CCCN(c3ncnc4c3nc3n4CCCCC3)C2)CC1 (stereo not given) | -17 | 3.2 | 16 | 3587 | 7 | -4 | 1
CCCCc1ccc(NC(=O)c2cnccn2)cc1 | 13 | 5.7 | 13 | 4530 | -7 | 10 | 15
Cn1nc(C(F)(F)F)c(C(=O)Nc2ccc(F)cc2)c1Cl | -26 | 6.2 | 0 | 4579 | -6 | 9 | 14
COc1cccc(Nc2nc3ccccc3nc2NS(=O)(=O)c2cccs2)c1 | 6 | 43 | 25 | 22498* | 10 | -2 | 1
CCNC(=O)COC(=O)COc1ccc(Cl)cc1C | -15 | -18 | -7 | 2960 | -10 | 12 | 8
COc1cc(/C=C2\SC(=S)N(CCC(=O)Nc3ccccc3O)C2=O)cc(OC)c1OC | -12 | 3.1 | -16 | 4409 | 8 | 4 | -3
O=C(Nc1ccccn1)c1cccc(S(=O)(=O)N2CCc3ccccc3C2)c1 | -15 | 10 | 0 | 6147 | -2 | 10 | -1
CCC(C(=O)NCCN1CCOCC1)n1c2ccccc2c2nc(=O)cc(C)n21 (stereo not given) | -10 | 1.2 | 4 | 5903 | -3 | 11 | 7
COc1cc2c(cc1OC)C(c1cccc(Br)c1)NC(=O)C2 (stereo not given) | 5 | -2.5 | -5 | ? | 12 | 2 | -5
COc1ccc(S(=O)(=O)N2CCc3ccccc32)cc1C(=O)N(CC(C)C)C1CCS(=O)(=O)C1 (stereo not given) | 10 | 3.2 | -3 | 5981 | 6 | 1 | 10
O=C(c1ccc(-c2ccccc2)cc1)C1CCCN(C(=O)Cn2cncn2)C1 (stereo not given) | -23 | 1.2 | 3 | 4649 | 1 | 3 | 4
CC1=NN(C(N)=S)C(=O)C1N=Nc1c(C)n(C)n(-c2ccccc2)c1=O (stereo not given) | -30 | 6.3 | 7 | 4190 | 7 | -7 | 2
COc1ccc(C(=O)NC2CC2)cc1OC1CCN(Cc2cc(C)cc(C)c2)CC1 | -2 | 2.3 | -1 | 5665 | 0 | 4 | 3
CCN(CC)C(=O)C1CCCN(C/C=C/c2ccccc2)C1 (stereo not given) | -16 | 0.2 | 1 | 25287* | 0 | -11 | -1
Cc1cc(C=NNC(N)=O)c(C)n1C1CCCCC1 | / | -2.1 | -6 | / | / | -12 | -2
COc1cc(CNCCNCC(C)O)ccc1OCc1ccc(Cl)nc1 (stereo not given) | -8 | 0.7 | 1 | 2393 | 8 | 15 | 9
CC1CCN(S(=O)(=O)c2cn(CC(=O)N3CCN(c4cccc(C(F)(F)F)c4)CC3)cn2)CC1 | -13 | 1.2 | 4 | 4376 | 5 | 4 | -7
CN(CCO)c1nc(N)c2c(N)nc3c(c2c1C#N)CC(=O)N3Cc1cccs1 | -71 | 6.4 | -1 | 4550 | -1 | 6 | 1
COc1ccccc1NC(=S)NC(=O)c1ccc(Cn2cc(Br)cn2)cc1 | -12 | 0.7 | 4 | 2595 | -4 | 5 | 11
CCn1nc(C(=O)Nc2nc3ccc(C)cc3s2)c2ccccc2c1=O | -30 | 32 | -4 | 5937 | 4 | 0 | 1
CC(=O)c1ccc(OCCn2cnc3ccccc32)cc1 | -37 | 3.5 | 7 | 2570 | -3 | 2 | -3
COc1cc(-c2noc(C)c2C#CC2(O)CCCCC2)cc(OC)c1OC | -4 | 1.3 | -30 | 3919 | 5 | 0 | 13
COCCN1CC(O)=C(c2nc3ccccc3c(=O)[nH]2)C1=N | -24 | -1.1 | -6 | 4806 | 7 | / | /
CCC1(c2ccc(F)cc2)NC(=O)NC1=O (stereo not given) | -30 | 1.7 | 10 | 3368 | -10 | 14 | 5
CC(=NNC(=O)c1ccco1)c1cccnc1 | / | 1.1 | 3 | / | / | 0 | -2
COCCn1nnnc1C(c1cccs1)N1CCN2CCCC2C1 (stereo not given) | -46 | 7.2 | 14 | 4481 | -8 | 9 | -6
Cc1[nH]c(=O)[nH]c(=O)c1NS(=O)(=O)c1ccc2c(c1)CCCC2 | -12 | -2.8 | 1 | 7258 | 6 | -1 | -4
NS(=O)(=O)c1ccc(CCNC(=O)c2ccc3c(=O)n4c(nc3c2)CCCCC4)cc1 | -4 | 3.8 | 3 | 7835 | / | 4 | 1
Cc1nn(CC(=O)N2CCN(C)CC2)c(=O)c2c1sc1ccccc12 | -12 | 2.4 | -3 | 5857 | 8 | -1 | 12
COc1ccc2[nH]c3c(c2c1)CN(C)CC3 | -6 | 0.5 | 2 | 10144 | 3 | 3 | 2
Cc1ccc2c(CC(=O)NNC(=O)c3ccccc3)coc2c1 | -10 | 3.6 | 6 | 2457 | -6 | 10 | 4
Cc1cc(OC(C)C(=O)N(Cc2ccco2)C2CCS(=O)(=O)C2)ccc1Cl (stereo not given) | -34 | 5.4 | -3 | 5353 | 0 | -3 | -3
CCc1ccccc1NC(=O)CSC1=C(C#N)C(c2ccc(O)c(OC)c2)C2=C(CCCC2=O)N1 (stereo not given) | -93 | -2.4 | -4 | 4417 | -3 | / | /
C=CCCC(=O)N(C)CCO | -15 | 5.5 | 1 | 4163 | -3 | 17 | 9
COC(=O)CN1C(=O)[C@H]2[C@@H](c3ccc(C)o3)N3C(=O)CN(Cc4ccccn4)C(=O)[C@@]3(C)[C@H]2C1=O | -11 | / | / | 2820 | 5 | / | /
CC(C)(C)c1ccc(C(=O)NN=Cc2cccc(Cl)c2)cc1 | / | -7.8 | -30 | / | / | 4 | 9
Cc1ccc(NS(=O)(=O)c2cc(C(=O)NCc3ccncc3)ccc2C)cc1 | -16 | 0.8 | 6 | 6480 | -2 | 10 | 7
CC(=O)Nc1ccc(S(=O)(=O)Nc2ncccn2)cc1 | -15 | 6.2 | 4 | 11182 | 1 | 18 | 15
O=C(NCc1ccco1)c1cccc(NS(=O)(=O)c2cccc(F)c2)c1 | -26 | / | / | 2422 | 22 | / | /
Cc1ccnc(SC2CC(=O)N(c3ccc(Br)cc3)C2=O)n1 (stereo not given) | 1 | 5.2 | 6 | 4305 | -1 | 6 | 0
CN(CC(=O)Nc1ccc(F)c(F)c1F)C(=O)c1cc(S(=O)(=O)N(C)C)ccc1N1CCCC1 | -12 | 4.8 | 5 | 3999 | / | 3 | 1
COc1ccc(/C(C)=N/NC(=O)c2nnn(-c3nonc3N)c2-c2cccs2)cc1OC | 0 | / | / | 6381 | -14 | / | /
CC(=O)Nc1sc2c(c1C(c1ccncc1)N1CCOCC1)CCCC2 (stereo not given) | -2 | 1.0 | 4 | 4254 | 1 | -10 | -1
Cc1ccccc1SCC(=O)Nc1cc(C(F)(F)F)ccc1N1CCOCC1 | -10 | -0.8 | 0 | 7081 | -7 | 8 | 0
CCc1ccccc1NC(=O)NC1CCCCC1 | -11 | -3.0 | 7 | 2244 | -1 | / | /
CCOC(=O)CCCCCC(=O)Nc1ccc2c(c1)C(=O)N([C@H](C)CO)C[C@@H](C)[C@H](CN(C)S(=O)(=O)c1cn(C)cn1)O2 | 12 | -9.4 | -3 | 3809 | / | -2 | 7
COc1ccc(C(=O)OCCN2CCOCC2)cc1 | -8 | 1.7 | 8 | 2422 | -16 | / | /
O=C(c1ccc(Br)cc1)N(Cc1nc2ccccc2c(=O)[nH]1)C1CCCC1 | -18 | 9.5 | -8 | 3784 | -3 | 5 | 3
Cc1cccc(-c2nc(CS(=O)CC(=O)NC3CCCC(C)C3C)c(C)o2)c1 (stereo not given) | 7 | 2.4 | 0 | 6247 | 5 | -7 | -5
CC(=O)NC(Cc1ccccc1C)C(=O)NC1CCN(c2nnnn2-c2ccccc2)CC1 (stereo not given) | -15 | 0.2 | 5 | 4041 | 15 | -2 | -1
COCCN1CSC(=S)N(Cc2ccco2)C1 | -11 | 5.9 | 16 | 21084* | 3 | 9 | 6
CN(c1ccccc1)S(=O)(=O)c1cccc(NC(=O)c2cc3ccccc3oc2=O)c1 | -58 | 4.7 | 12 | 4011 | -3 | 14 | 4
Cc1cc(C)c(C(=O)COC(=O)Cn2nc(-c3ccccc3)oc2=O)cc1C | -5 | 22 | 7 | 3450 | / | 14 | 14
Cc1cccc(-c2nc(CS(=O)CC(=O)NCCc3ccc(Cl)cc3)c(C)o2)c1 (stereo not given) | -1 | -0.4 | -8 | 4020 | 11 | 3 | -3
O=C(O)C1CCCN(S(=O)(=O)c2ccc(-c3ccc(=O)[nH]n3)s2)C1 (stereo not given) | -21 | 2.0 | -1 | 2520 | 2 | 14 | 0

Entries of single compounds, quoted from the list:
Cc1ccc(NS(=O)(=O)c2cc(C(=O)NCc3ccncc3)ccc2C)cc1 across the screens: PrP 5UTR inh: -16; RN4220 kill: 0.8; Sa ugtP lethal: 6; Bead autofluor: 6480; BJeLR viability: -2; Mtb hypoxia inh: 10; Mtb hypoxia inh growth: 7
CC(C)(C)c1ccc(C(=O)NN=Cc2cccc(Cl)c2)cc1 across the screens: PrP 5UTR inh: /; RN4220 kill: -7.8; Sa ugtP lethal: -30; Bead autofluor: /; BJeLR viability: /; Mtb hypoxia inh: 4; Mtb hypoxia inh growth: 9

Some of the entries above, reformatted.
> COc1ccc(/C(C)=N/NC(=O)c2nnn(-c3nonc3N)c2-c2cccs2)cc1OC
  PrP 5UTR inh: 0; RN4220 kill: /; Sa ugtP lethal: /; Bead autofluor: 6381; BJeLR viability: -14; Mtb hypoxia inh: /; Mtb hypoxia inh growth: /
> NS(=O)(=O)c1ccc(CCNC(=O)c2ccc3c(=O)n4c(nc3c2)CCCCC4)cc1
  PrP 5UTR inh: -4; RN4220 kill: 3.8; Sa ugtP lethal: 3; Bead autofluor: 7835; BJeLR viability: /; Mtb hypoxia inh: 4; Mtb hypoxia inh growth: 1

Next section:
Structure | PrP 5UTR inh | RN4220 kill | Sa ugtP lethal | Bead autofluor | BJeLR viability | Mtb hypoxia inh | Mtb hypoxia inh growth
O=C(COC(=O)COc1ccccc1)Nc1ccc(Br)cc1Br | -18 | 2.5 | 3 | 3731 | / | 8 | 1
Cc1ccc(C2=[N+]([O-])C3(CCCCCC3=NNC(N)=S)N(O)C2(C)C)o1 (stereo not given) | / | 17 | 14 | / | / | -13 | -7
COc1ccc(S(=O)(=O)Oc2ccccc2C(N)=O)cc1 | -6 | 8.7 | 4 | 5692 | / | 4 | 5
NC(=O)CSc1nnc(Cc2csc(Nc3ccccc3)n2)n1Cc1ccccc1 | -14 | 11 | -5 | 10271 | -10 | 2 | -1

Looked up above.
Result of Cc1ccc(C2=[N+]([O-])C3(CCCCCC3=NNC(N)=S)N(O)C2(C)C)o1 (stereo not given) under RN4220 kill: 17
Result of COc1ccc(S(=O)(=O)Oc2ccccc2C(N)=O)cc1 under Mtb hypoxia inh growth: 5

Bioassay records as filed in PubChem.
